Screening results from PubChem BioAssay.
H5N1 antiviral – antiviral screen in MDCK cells, H5N1 avian flu | cytopathic effect, luminescence, 72 h; hits give high values; no value below 0 was filed and about half of the inactive calls have no number; reference of the scale not given here | inhibition, % at 50 µM | 96,000 compounds, 0.07% hits | AID 740; in the data active means inhibition above about 25%
Numbers without * were called inactive; i = inactive. This is a subset; rates above refer to the full screens.

entry	compound	H5N1 antiviral
1	Cc1nnc(NC(=O)CSc2nnc(-c3ccoc3C)n2CC(C)C)s1	1.2
2	Cc1cc(C)nc(SCC(=O)NCc2ccco2)n1	0.7
3	CS(=O)(=O)Nc1ccccc1C(=O)N1CCN(c2ccccc2)CC1	i
4	COc1cc2ccccc2cc1C(=O)Nc1ccc(S(=O)(=O)Nc2cc(C)on2)cc1	0.3
5	O=C(Nc1cccc(C(=O)N2CCCCCC2)c1)c1ccco1	1.0
6	Cc1nn(Cc2ccccc2Cl)c(C)c1C(=O)N1CCN(c2ccccc2)CC1	0.6
7	CN=c1sc(C(=O)Nc2cccc(Cl)c2)cc(=O)n1C	i
8	c1ccc2ncc(-n3cnnn3)cc2c1	1.2

Additional results
entry	compound	H5N1 antiviral
9	CC1(C)CC(=O)C2=C(C1)N(Cc1ccccc1)C(=O)C2(NC(=O)C(C)(C)C)C(F)(F)F (stereo unspecified)	0.3
10	Fc1ccccc1CSc1nc2ccccc2[nH]1	i
11	CCc1nn2cc(-c3ccccc3)nc2s1	i
12	Oc1ccc(-c2nc3ccccn3c2NCc2ccco2)cc1	0.0
13	Cc1cc(C)n(-c2ccc(C(=O)OCC(=O)Nc3ccc(Cl)c(S(=O)(=O)N(C)C)c3)cc2)n1	i
14	Cc1cccc(NC(=O)CCN2CC(C)OC(C)C2)c1 (stereo unspecified)	i
15	CC1CN(Cc2cc(=O)[nH]c(C3CC3)n2)CC(C)O1 (stereo unspecified)	0.5
16	CC(=O)Nc1ccc(NC(=O)Cn2c(-c3ccc(F)cc3)cnc2SCC(=O)Nc2c(C)cccc2C)cc1	i

Other records follow.
entry	compound	H5N1 antiviral
17	CCOC(=O)c1ccc(Nc2cc(C)nc(-c3ccccc3O)n2)cc1	i
18	COc1ccc(NC(=O)CCS(=O)(=O)c2ccc(OC)cc2)cc1	0.5
19	CCCNS(=O)(=O)c1ccc(OC)c(Cl)c1Cl	1.7
20	Cc1ccc(S(=O)(=O)N(CCCN2CCCC2=O)Cc2cc3c(C)ccc(C)c3[nH]c2=O)cc1	i
21	Cc1ccccc1NC(=O)/C(C#N)=C\c1cccnc1	0.4
22	COc1ccc(-n2c(SCC(=O)NC3CCCCC3)nc3ccsc3c2=O)cc1	i
23	Cc1nn(Cc2ccccc2)c(C)c1NC(=O)c1noc2c1CCc1ccccc1-2	0.1
24	CN(C)c1nc(-c2ccccc2)[n+](C)s1	i

Next structures:
entry	compound	H5N1 antiviral
25	COc1ccc(NC(=O)C2(c3ccc(NC(=O)c4ccc(C)cc4)cc3)CCCC2)cc1	0.5
26	Cc1ccc(-n2c3c(cc(C(=O)NC4CCSC4=O)c2=O)C(=O)CCC3)cc1 (stereo unspecified)	2.4
27	CCOC(=O)CNC(=O)c1c(C)nn(-c2ccccc2)c1Cl	i
28	O=C(OCC(=O)N1CCN(C(=O)c2ccco2)CC1)c1ccccc1OCc1ccc(Cl)cc1	i
29	O=C(c1ccc(S(=O)(=O)N2CCCCC2)cc1)N1CCN=C1SCc1cccnc1	2.7
30	CCN(CC)C(=O)C(Sc1ccccc1)c1ccccc1 (stereo unspecified)	0.8
31	O=C(CCSCCC(=O)NCc1cccs1)NCc1cccs1	i
32	CCn1c(SC(=O)NC2CCCCC2)nnc1-c1cccs1	1.8

2 of these compounds in another layout:
25: COc1ccc(NC(=O)C2(c3ccc(NC(=O)c4ccc(C)cc4)cc3)CCCC2)cc1
  H5N1 antiviral: 0.5

26: Cc1ccc(-n2c3c(cc(C(=O)NC4CCSC4=O)c2=O)C(=O)CCC3)cc1 (stereo unspecified)
  H5N1 antiviral: 2.4

Next section.
entry	compound	H5N1 antiviral
33	CC(=O)CCc1c(C)c2cc(C)ccc2[nH]c1=O	0.7
34	CCn1c(=O)c([N+](=O)[O-])c(NCCc2ccccc2)c2ccccc21	0.9
35	CCOC(=O)CSc1nc(-c2ccccc2)nc2ccc(F)cc12	i
36	COc1ccc(NC(=O)c2cc3c(-c4ccc(OC)c(OC)c4)nn(C)c3s2)cc1OC	i
37	Cc1cccc(N2CCN(C(=O)C3CCN(S(=O)(=O)c4cnc[nH]4)CC3)CC2)c1C	i
38	CCS(=O)(=O)N1CCN(Cc2ccccc2OC)CC1	0.2
39	CC1CN(Cc2ccc(C#N)cc2Cl)CC(C)O1 (stereo unspecified)	i
40	Cc1ccc(/C=N/NC(=O)Cc2c[nH]c3ccccc23)c(C)c1	i

Remaining list, next part.
entry	compound	H5N1 antiviral
41	CCOC(=O)c1c(C)[nH]c(C=Nc2ccccc2)c1O	1.5
42	COc1ccc(CNC(=O)COc2ccc([N+](=O)[O-])cc2)cc1	0.6
43	COc1ccc(Cc2nnc(SCC(=O)c3ccc(OC)cc3)o2)cc1	0.7
44	CCC(=O)Nc1ccc(SC#N)cc1C	0.8
45	Cc1nnc(SC(C)C(=O)Nc2ccc(S(=O)(=O)N3CCCCCC3)cc2)s1 (stereo unspecified)	1.1
46	Cc1ccc(OCCCC(=O)N2CCOCC2)cc1	0.6
47	C=CCN(C(=O)CCC(=O)O)C1CC(=O)N(c2ccc(OC)cc2)C1=O (stereo unspecified)	i
48	CCN(Cc1ccncc1)C(=O)c1cccc(S(=O)(=O)N2CCOCC2)c1	2.1

(listing goes on)
entry	compound	H5N1 antiviral
49	COc1ccc(N2CCC(CNS(=O)(=O)c3cccc(C(F)(F)F)c3)C2)cc1 (stereo unspecified)	i
50	C=CCN1C(=O)CN=C1Nc1cccc(C)c1	0.8
51	CC1=C2C(CCS2(=O)=O)CC2(C1)C(=O)OC(C)(C)OC2=O (stereo unspecified)	0.0
52	Cc1cc(Nc2ccc(Cl)cc2)n2nnnc2n1	1.9
53	COc1nc(Nc2ccc(OC)c(Cl)c2)nc(OC)n1	i
54	CCCCCCn1c(=O)c(-c2ccccc2)c(O)c2ccccc21	0.8
55	CN=C1S/C(=C\c2ccc(Sc3ccc(Cl)cc3)o2)C(=O)N1C	i
56	O=C(CSc1nc(-c2ccccc2)cs1)Nc1nccs1	0.4

(continued)
entry	compound	H5N1 antiviral
57	COc1ccccc1N1CCN(C(=O)c2cc3c(-c4ccc(Cl)cc4)nn(C)c3s2)CC1	0.1
58	Cc1cc(C)c(S(=O)(=O)c2ccccc2C)c(SCC(C)C)n1	0.9
59	Cc1cnc(NC(=O)CSc2nnc(COc3c(C)cccc3C)o2)s1	0.7
60	COc1ccccc1C(=O)Nc1ccccc1N1CCOCC1	1.4
61	CCC(=O)Nc1ccnc(-c2cccnc2)n1	0.4
62	O=C(Nc1ccc2c(c1)OCCO2)c1cccnc1	i
63	CC(C)Oc1cccc(C(=O)Nc2ccc(CN3CCOCC3)cc2)c1	i
64	COC(=O)C(O)(CC(=O)Nc1ccc(Cl)cc1F)C(F)(F)F (stereo unspecified)	1.0

Following part
entry	compound	H5N1 antiviral
65	Cn1c(=O)oc2cc(S(=O)(=O)N3CCCC(C(=O)NCc4ccc5c(c4)OCO5)C3)ccc21 (stereo unspecified)	i
66	Nc1nc(C(=O)N2CCOCC2)nn1S(=O)(=O)c1ccccc1	0.3
67	COCCn1nnnc1SCC(=O)c1ccccc1	i
68	CCOC(=O)CN1C(=O)c2ccccc2C1=O	0.7
69	O=C(O)CN(c1ccccn1)S(=O)(=O)c1ccccc1	0.1
70	CC(NCc1ccc2c(c1)OCO2)C(=O)NC1CCCc2ccccc21 (stereo unspecified)	0.1
71	CCCC(OC(=O)CC1Sc2ccccc2NC1=O)C(=O)NCc1ccco1 (stereo unspecified)	i
72	COc1ccc(NC(=O)N2CCCCC2)cc1	i

(list continues)
entry	compound	H5N1 antiviral
73	Cc1cc(-c2ccccc2)n2nc(C)c(C#N)c2n1	1.0
74	N#Cc1ccc(-c2cccnc2)nc1SCC(=O)Nc1sc2c(c1C#N)CCC2	1.1
75	COc1cc2nc(SCc3c(C)noc3C)n(CCC3=CCCCC3)c(=O)c2cc1OC	0.5
76	N#CC1=C(N)C(C#N)(C#N)[C@H](c2ccncc2)[C@H]2CN(C(=O)OCc3ccccc3)CC=C12	1.8
77	CC(C)OC(=O)c1ccc(OC(=O)c2cccnc2)cc1	1.0
78	S=c1[nH]nc(-c2ccco2)n1Cc1ccccc1	0.5
79	COc1ccccc1N1CCN(C(=O)CCc2ccc(S(=O)(=O)NC(C)C)cc2)CC1	1.6
80	CCOC(=O)COc1ccc(S(=O)(=O)Nc2ccc(C)cc2)cc1	1.2

Continued:
entry	compound	H5N1 antiviral
81	O=C1NN(c2ccc(F)c(Cl)c2)C(=O)/C1=C\c1cccc(OC(=O)c2cccs2)c1	1.4
82	CCc1c(C)nc2cc(-c3cc(OC)cc(OC)c3)nn2c1N1CCCC1	1.5
83	CCC(C)[C@H](NC(=O)NCc1ccc(Cl)cc1)C(=O)OC (stereo partly specified)	1.3
84	Cn1c(/C=N/NC(=O)c2ccccc2)nc2ccccc21	9.5
85	Cc1c(NC(=O)c2ccc(Cl)c(S(=O)(=O)N3CCOCC3)c2)c(=O)n(-c2ccccc2)n1C	i
86	CCOC(=O)CNS(=O)(=O)c1c(C)noc1C	i
87	COc1ccc(C2C=C(c3cccs3)Nc3nc(CCCO)nn32)cc1 (stereo unspecified)	0.2
88	N#Cc1c(NC(=O)c2ccc(Cn3cc(Br)cn3)o2)sc2c1CCCCC2	i

An excerpt from further up, for reference:
entry	compound	H5N1 antiviral
83	CCC(C)[C@H](NC(=O)NCc1ccc(Cl)cc1)C(=O)OC (stereo partly specified)	1.3
84	Cn1c(/C=N/NC(=O)c2ccccc2)nc2ccccc21	9.5
85	Cc1c(NC(=O)c2ccc(Cl)c(S(=O)(=O)N3CCOCC3)c2)c(=O)n(-c2ccccc2)n1C	i
86	CCOC(=O)CNS(=O)(=O)c1c(C)noc1C	i
87	COc1ccc(C2C=C(c3cccs3)Nc3nc(CCCO)nn32)cc1 (stereo unspecified)	0.2
88	N#Cc1c(NC(=O)c2ccc(Cn3cc(Br)cn3)o2)sc2c1CCCCC2	i

(cont.)
entry	compound	H5N1 antiviral
89	COc1cc(Nc2cc(C)nc3ncnn23)cc(OC)c1OC	1.2
90	O=C(CN1CCCCC1)Nc1ccc(S(=O)(=O)N2CCCCCC2)cc1	i
91	Nn1c(SCC(=O)Nc2ccc3c(c2)OCCO3)nnc1C(F)(F)F	0.5
92	CC(=O)Oc1c(Cl)cc(Cl)cc1/C=C/c1ccc2ccccc2n1	1.7
93	Cc1cc(=O)n2[nH]c(=O)c(N=Nc3ccccc3)c2[nH]1	0.1
94	CCOC(=O)Cn1c(=O)oc2cc(S(=O)(=O)N(CCN(C)C)Cc3ccccc3)ccc21	1.9
95	CCOC(=O)CSc1nc2sc3c(c2c(=O)[nH]1)CC(C)(C)OC3	i
96	CC(C)N(C(=O)CSc1nnc(Cn2nnc3ccccc32)n1C)C(C)C	1.8

More structures follow.
entry	compound	H5N1 antiviral
97	CCN(CC)c1ccc(Nc2nc(N3CCOCC3)c3ccccc3n2)cc1	4.8
98	CCCS(=O)(=O)N1CCn2c(nc3ccccc32)C1	4.4
99	CCCCOc1ccc(C(=O)Nc2ccc(N3CCN(C(C)=O)CC3)cc2)cc1	1.8
100	N#Cc1ccc(-c2ccccc2)nc1SCC(=O)c1cc2ccccc2oc1=O	i
101	CSc1ccccc1NC(=O)C1CC(c2ccccc2O)=NO1 (stereo unspecified)	0.6
102	COc1ccccc1-n1cnnc1SCC(=O)NCc1cccs1	1.5
103	COc1cccc(/C(O)=C2/C(=O)C(=O)N(Cc3ccco3)C2c2ccncc2)c1 (stereo unspecified)	i
104	COc1ccc(NC(=O)CN2CCN(S(=O)(=O)c3ccc(F)cc3)CC2)cc1Cl	1.3

Later entries:
entry	compound	H5N1 antiviral
105	O=C(Nc1nc2ccccc2[nH]1)c1ccc(F)cc1	i
106	O=C(Nc1ccc(N2CCCC2)cc1)C(Cl)c1ccccc1 (stereo unspecified)	i
107	Cc1ccc(C(=O)Cn2c(C)cc(C)c(C#N)c2=O)cc1	0.1
108	Cc1c(C(=O)OC2CCCC2)[nH]c2c1C(=O)CC(c1ccco1)C2 (stereo unspecified)	i
109	CN(C)S(=O)(=O)c1ccc(C(=O)OCn2nnc3ccccc3c2=O)cc1	0.6
110	C=CCNC(=O)COc1ccc(S(=O)(=O)NC2CCCCC2)cc1	0.5
111	Cn1c(CO)cnc1S(=O)(=O)Cc1ccc([N+](=O)[O-])cc1	1.0
112	O=C(Nc1ncn[nH]1)c1ccc([N+](=O)[O-])cc1[N+](=O)[O-]	1.3

(list continues)
entry	compound	H5N1 antiviral
113	CCn1c(SCC(=O)Nc2cc(NC(C)=O)ccc2OC)nnc1-c1cccnc1	1.0
114	COc1cc(OC)c(OC)cc1/C=N/NC(=S)NCC1CCCO1 (stereo unspecified)	0.2
115	CCN(CC)S(=O)(=O)c1ccc(N=Cc2c(O)n(-c3ccccc3)c(=O)[nH]c2=O)cc1	0.1
116	CNc1nc(-c2ccccc2)nc(-c2ccccc2)c1C#N	i
117	Cc1ccc(C(=O)O/N=C/C2=C(Cl)c3ccccc3CC2)cc1	i
118	CCCCOc1ccc(/C(O)=C2/C(=O)C(=O)N(CCCOC)C2c2ccncc2)cc1C (stereo unspecified)	i
119	CCOC(=O)CSc1nc(C)c2cc(OC)ccc2n1	2.5
120	Cc1ccnc(SCC(=O)Nc2sc3c(c2C#N)CCCC3)n1	4.6

The results go on.
entry	compound	H5N1 antiviral
121	CCCCn1c(SCC(N)=O)nnc1-c1ccco1	i
122	Cc1ccc(-n2c(C)nc3c(cnn3-c3ccc(F)cc3)c2=O)cc1	0.8
123	CCOC(=O)N1CCC(N(CCOC)C(=O)Nc2ccc(CC)cc2)CC1	0.1
124	C[C@H](Nc1ncnc2sc3c(c12)CCC3)C(=O)O	0.5
125	CCOC(=O)c1[nH]c(C)c(C(=O)Nc2ccc3c(c2)OCCO3)c1C	i
126	CC(C)CNC(=O)c1ccc(Cl)c(Cl)c1	0.6
127	COCCCn1cnc2c(c1=O)c1nc3ccccc3nc1n2-c1ccccc1	0.6
128	COC(=O)c1ccccc1NC(=O)c1noc2c1CCCC2	i

Other entries follow.
entry	compound	H5N1 antiviral
129	CC1(C)N=C(c2ccc(Cl)cc2Cl)C(=O)N1	i
130	CCCCCn1c(=O)[nH]c2cc(C(=O)NCCc3ccc(OC)c(OC)c3)ccc2c1=O	0.6
131	Cc1nc2c(oc3ccccc32)c(=O)o1	i
132	CN(C)CCOc1ncnc2c1oc1ccccc12	i
133	CC(=O)NC(c1ccco1)c1ccc2cccnc2c1O (stereo unspecified)	i
134	CC1=NN(C(=O)c2ccc(Br)cc2)C(O)(C(F)(F)OC(F)(F)F)C1 (stereo unspecified)	0.9
135	COc1ccc(CCNC(=O)CNS(=O)(=O)c2cccs2)cc1OC	0.6
136	Cc1cc(Cl)ccc1OCC(=O)NCCC(=O)O	2.1
